Bead autofluor: flagged as autofluorescent in microsphere protease counterscreen. fluorescence intensity (test concentration not listed). hit rate 3.1% among 360,000. compound autofluorescence counterscreen, microsphere flow cytometry; hits give high values;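 active = at least 3 SD above the mean of all compounds, about 16000 in these data; inconclusive = too few beads counted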;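 note: 100 nL of 1 mM stock went into each well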
ugtP null kill: compounds lethal to S. aureus RN4220 ugtP deletion mutant; OD600 growth, 16 h; some inactives read as strong as hits; hit rate 0.54% among 330,000; growth inhibition, % (concentration not given with the values);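 active = z-score under -3 and OD600 up to 0.15 on both plates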;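 note: plate controls were untreated wells for no effect and antibiotic for full effect; wells of about 80 µL received 100 nL stock; the first replicate is given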
PrP UTR inh: inhibition of PrP 5' UTR reporter expression. cell-based PrP 5' UTR mRNA reporter, plate reader. inhibition, % (no concentration beside the values). hit rate 0.35% among 340,000;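 active = every replicate at 50% or more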;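 note: 0 = median of the neutral control wells; tested in H4 reporter cells; numbers are from one replicate; inactives centre near -14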
Sa RN4220 lethal: S. aureus RN4220 growth inhibition. OD600, 16 h. inhibition, % (test concentration not listed). hit rate 0.33% among 330,000;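 active = z-score of -3 or lower and OD600 up to 0.18 on both plates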;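 note: plate controls were untreated cells for no effect and reference antibiotic for full effect; stock transfer was 100 nL into about 80 µL; one replicate is shown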
BJeLR lethal: kills HRASV12-expressing BJeLR cells; BJeLR (HRASV12) viability, CellTiter-Glo ATP luminescence, 48 h; reference of the scale not given here; inhibition, % (concentration not given with the values); hit rate 0.17% among 300,000; AID 1554;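 active = replicate mean above 50%; inconclusive = above 50% but judged a plate artefact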;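 note: 50 nL library stock added to about 25 µL; numbers are from one replicate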
Mtb hypoxia inh: reduces hypoxia-regulated biosensor signal in M. tuberculosis | hit rate 0.1% among 300,000 | M. tuberculosis hypoxia-regulated fluorescent reporter, fluorescence | fluorescence inhibition, % (test concentration not listed);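 active = 35 to 45% if threefold the growth effect, above 45% if 1.5-fold the growth effect; inactive = the rest, general growth blockers included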;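 note: wells of about 50 µL received 100 nL stock; 0% = vehicle wells and 100% = reference inhibitor wells; whole bacteria with a GFP reporter of the hypoxia response; strong numbers were not always called active; many hits fall short of the cut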
Mtb hypoxia inh growth: second read-out of Mtb hypoxia inh, no call of its own (marks repeat the call); growth inhibition, %; measured here: M. tuberculosis growth (absorbance);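 0% = vehicle and 100% = reference antibiotic; read after six days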
Numbers without * were called inactive; ? = inconclusive; · = not tested or not shown.

structure	Bead autofluor	ugtP null kill	PrP UTR inh	Sa RN4220 lethal	BJeLR lethal	Mtb hypoxia inh	Mtb hypoxia inh growth
COc1ccc(CCNC(=O)Nc2ccccc2[N+](=O)[O-])cc1	3503	0	-63	3.1	0	6	7
COc1cc(/C=C2/SC(=S)NC2=O)ccc1OS(=O)(=O)c1ccc(C)cc1	2637	3	-46	12	-1	-3	6
COc1ccc(C(=O)N2CCN(c3nc(C4CC4)nc4sc(C)c(C)c34)CC2)cc1	3775	37	-14	2.9	-6	-2	2
CC(=O)Nc1nn(C)c2nc3cc(C)ccc3cc12	2712	-11	-24	-3.7	2	·	·
O=C1CCCN1CC(CN1CCOCC1)Sc1nc2ccccc2c(=O)n1-c1ccccc1 (centres undefined)	2393	17	-3	28	·	-4	4
CC(=O)c1cn(CC(=O)Nc2ccccc2C(F)(F)F)c2ccccc12	3223	0	-10	3.1	-3	-3	-13
Cc1ccc(CCNC(=O)c2ccc3nc4ccc(Cl)cc4c(=O)n3c2)cc1	3034	13	2	3.5	4	5	-2
CN1CCc2c(sc3nc(SCC(=O)N4CCOCC4)nc(N)c23)C1	2461	16	0	15	3	3	0
CN(C)C(=O)CSc1nnc(-c2cccnc2)n1-c1ccccc1	6540	9	-19	0.7	-9	·	·
O=C1C(Cc2ccccc2)NC(=S)N1c1ccccc1 (centres undefined)	11051	5	-9	5.0	0	9	5

Single records, as listed above. Screens in order: Bead autofluor, ugtP null kill, PrP UTR inh, Sa RN4220 lethal, BJeLR lethal, Mtb hypoxia inh, Mtb hypoxia inh growth
O=C1C(Cc2ccccc2)NC(=S)N1c1ccccc1 (centres undefined) is entered as 11051, 5, -9, 5.0, 0, 9, 5
CN(C)C(=O)CSc1nnc(-c2cccnc2)n1-c1ccccc1 is entered as 6540, 9, -19, 0.7, -9, ·, ·

(continued)
structure	Bead autofluor	ugtP null kill	PrP UTR inh	Sa RN4220 lethal	BJeLR lethal	Mtb hypoxia inh	Mtb hypoxia inh growth
CCC[C@@H](CN1CCC[C@H]1CN1C(N)=NC[C@H]1CC(C)C)N1C[C@@H](Cc2ccccc2)N(CCCC2CCCC2)C1=N	3119	101*	-7	100*	·	·	·
COc1ccccc1N1CCN(C(=O)CC(NC(=O)c2ccccc2Cl)c2ccccc2)CC1 (centres undefined)	5229	11	-10	3.2	·	-3	-7
COc1ccc(/C(C)=N/NC(=O)c2cccc(S(=O)(=O)N3CCCC3)c2)c(O)c1	?	·	26	·	28	·	·
COc1ccc(CCNC(=O)C/C(C)=N/NC(=O)COc2ccc(C)cc2Br)cc1OC	6007	·	-19	·	-4	·	·
Cc1nonc1NC(=O)CSc1nc2c(C)cccc2cc1C#N	2821	·	-22	·	-6	·	·
CC(C)c1ccc(NC(=O)CCNC(=O)Cn2cnc3ccccc3c2=O)cc1	3759	1	-16	1.4	4	-13	0
CCc1c(C)c2ccc(OCC(=O)OC)cc2oc1=O	17530*	3	-16	0.3	-3	8	7
CCCC/C(C)=N/NC(=O)C(=O)NCCc1ccccc1	2286	·	-24	·	8	·	·
CC(C)Oc1ccc(C(CC(=O)N2CCOCC2)C(C)C)cc1 (centres undefined)	3837	7	-20	2.3	-5	5	-6
Cc1ccc(S(=O)(=O)N(CC(=O)Nc2cc(C)ccc2C)C(=O)N2CCN(C)CC2)cc1	5615	7	-11	2.2	3	-1	-1
OC(CNC1CCCC1)COc1ccccc1Br (centres undefined)	3657	-2	-15	-0.3	7	12	4
O=C(C1CCCN(c2ncnc3c2nc2n3CCCCC2)C1)N1CCN(c2ccccc2F)CC1 (centres undefined)	5067	11	-5	6.1	-7	-4	-5
Cc1cc(C)n(-c2nncc(-c3ccccc3)n2)n1	3687	-5	-34	-13	-7	23	10
CC(CCC1=C(C)CCCC1(C)C)=NNC(N)=S	·	2	·	3.7	·	12	13
O=C(CNC(=O)c1cc(Cl)cc([N+](=O)[O-])c1)OCC(=O)N1CCCCC1	3991	4	6	1.6	·	20	9
O=S(=O)(c1cccc2cccnc12)n1cnc2ccccc21	3804	-10	-4	3.0	5	·	·
CCOC(=O)CC(C(C)=NO)c1ccccc1 (centres undefined)	·	-1	·	9.1	·	1	9
CCOc1ccc(NC(=S)Nc2ccc(C)c([N+](=O)[O-])c2)cc1	9771	-14	-22	-3.9	-3	14	8
COc1cccc(C=Nn2c(COc3ccccc3)n[nH]c2=S)c1O	·	0	·	0.9	·	3	10
O=C(CN1CCCN(S(=O)(=O)c2ccc(F)cc2)CC1)Nc1ccccc1Br	4522	9	-1	8.5	3	·	·
Cc1ccccc1-n1nc(C)c(N=O)c1N	4268	6	-25	3.3	7	18	8
CC(C)(C)c1ccc(S(=O)(=O)N2CCN(C(=O)c3ccc4c(c3)C(=O)N(Cc3ccncc3)C4=O)CC2)cc1	4110	9	-12	4.6	·	2	-1
COc1ccc(CNC(=O)CCCn2nc([N+](=O)[O-])cc2C)cc1	4354	3	-6	3.6	10	10	4
COc1cc(/C=N/n2nnnc2N)ccc1OC(C)C	3103	·	-10	·	8	·	·
O=c1cc(N2CCCCC2)nc2n1CCCS2	8437	3	-8	5.0	-5	-5	-3
Cc1c(C)c2ccc(OC(C)C(=O)NC3CCN(Cc4ccccc4)CC3)cc2oc1=O (centres undefined)	5951	11	-4	5.2	4	6	0
CCOC(=O)C1(CCOc2ccccc2)CCN(Cc2cccn2-c2cccnc2)CC1	4813	6	-12	-1.0	-2	2	-1
O=c1[nH]c(/C(Cl)=C/c2cc(Cl)ccc2O)nc2cc(Cl)ccc12	12042	74	-2	58	1	4	1
O=C(/C=C/c1cccc([N+](=O)[O-])c1)NCCSCc1ccco1	2477	4	-54	1.9	-4	12	8
CCN(CC)CCn1cnc2c([nH]c3cccc(OC)c32)c1=O	2769	-6	-10	1.3	4	9	3
Cc1ccc(NS(=O)(=O)c2ccc(CCC(=O)N3CCOCC3)cc2)cc1	3399	12	-17	2.8	-2	·	·
CCCn1c(N)c(C(=O)CSc2nc3ccccc3c(=O)n2-c2ccc(OC)cc2)c(=O)[nH]c1=O	4439	2	-25	1.5	2	3	15
CCN(CC(=O)Nc1ccc(OC)cc1)C(=O)c1ccc(OCc2c(C)noc2C)cc1	?	7	-24	2.3	·	-3	1
CCOc1cc(CNc2ccc3c(c2)OCCO3)cc(Br)c1OC	2555	10	42	3.3	31	4	-5
COc1ccc(CN2CCCN(S(=O)(=O)c3ccc(Br)cc3)CC2)cc1	3951	21	-60	-0.8	2	2	11
COc1ccccc1NC(=O)Nc1ccc(C(=O)N2CCCCC2)cc1	4329	6	·	-0.2	24	7	11
Fc1ccc(N2CCN(c3nc(-c4ccco4)cc(C(F)(F)F)n3)CC2)cc1	9624	-17	-11	-2.8	-1	4	3
CCOC(=O)c1sc(N)c(C#N)c1CSc1nc2ccc(OCC)cc2[nH]1	3447	8	-14	-6.1	-12	-7	-4
O=C(NN=Cc1ccc2c(c1)OCO2)C(=O)Nc1ccccc1	·	1	·	1.5	·	-3	-4
O=C(CSc1nnc(-c2ccccc2Br)o1)Nc1cccc2ccccc12	4021	-10	-24	5.0	-2	11	9
CCOc1ccc(N(CC(=O)Nc2cccc(C)c2C)S(=O)(=O)c2c(C)[nH]c(=O)[nH]c2=O)cc1	3968	-1	-11	-0.5	-16	8	5
Cn1cc(Br)c(C(=O)NN=Cc2cc3c(cc2Cl)OCO3)n1	·	9	·	2.1	·	8	4
CC1CCCC(NC(=O)CN2C(=O)NC(c3ccccc3)(c3ccccc3)C2=O)C1C (centres undefined)	5296	-8	-3	-3.3	·	0	15
CCc1nnc(N/N=C/c2ccccc2F)n1N	4831	·	-1	·	-1	·	·
CC(=O)NNC(=O)N1Cc2ccccc2Oc2ccc(Cl)cc21	5870	2	-29	7.6	0	-3	0
Cc1ccc(-c2cnc(NC(=O)CCC(=O)N(C)Cc3ccccc3)n2C)cc1	3823	-4	-10	4.3	0	9	10
Cc1ccc(S(=O)(=O)N2CCOCC2)cc1C(=O)OC(C)C(=O)NC1CCCC1 (centres undefined)	8331	4	-12	7.6	·	9	1
CC(C)CCSc1nc2ccccc2[nH]1	3250	5	-148	3.1	-1	11	8
CC(C)(C)c1nc(SCC(=O)c2ccccc2)c2ccccc2n1	3525	34	-56	-1.1	-7	10	0
NC(=O)CSc1nnc2n(N)c(=O)c3ccccc3n12	3156	1	-41	0.6	0	0	-3

The results go on:
structure	Bead autofluor	ugtP null kill	PrP UTR inh	Sa RN4220 lethal	BJeLR lethal	Mtb hypoxia inh	Mtb hypoxia inh growth
CCn1c(SCC(=O)Nc2ccc(S(N)(=O)=O)cc2)nnc1-c1ccccc1OC	3353	-6	-10	3.7	-1	6	8
CC(=O)Oc1ccc2c(C)c(CC(=O)N3CCN(C(=O)C4COc5ccccc5O4)CC3)c(=O)oc2c1C (centres undefined)	4233	11	3	4.3	0	1	-6
COC(=O)COc1cccc(NC(=O)c2ccc(C)cc2)c1	9307	-3	-27	4.4	0	6	14
O=C(CCc1ccc(S(=O)(=O)N2CCOCC2)cc1)OCC(=O)c1ccccc1F	3547	0	-23	3.2	·	8	7
O=C(O)CCCCCN1C(=O)/C(=C/c2ccncc2)SC1=S	9199	·	7	·	-4	·	·
Cc1cc(=O)oc2cc(OCC(=O)NC3(C#N)CCCCC3)c(Cl)cc12	5193	6	-7	0.2	·	4	3
CCOC(=O)C1=CN(Cc2ccco2)S(=O)(=O)N(CC)C1c1cccc(OC)c1 (centres undefined)	2934	19	-5	8.5	·	8	-3
CN1CCN(c2nc(-c3cccc([N+](=O)[O-])c3)nc3ccccc23)CC1	3127	-1	1	-3.8	13	5	-4
COc1cc(NC(=O)CSCc2cnn(-c3ccccc3)c2-n2cccc2)cc(OC)c1	3064	0	-11	-0.4	0	3	13
COc1ccc(/C(C)=N/NC(=O)CNC(=O)c2cccnc2)c(OC)c1	2967	·	-13	·	-12	·	·
CC(=O)c1ccc(S(=O)(=O)N2CCn3cccc3C2C)cc1 (centres undefined)	4731	9	-57	5.2	·	8	5
O=c1[nH]nc(Cc2ccc(Cl)cc2Cl)c2ccccc12	4500	0	5	-4.5	8	·	·
C[C@@H]1CN(Cc2nc(-c3cccs3)no2)C[C@H](C)O1	4489	-5	-5	1.6	-15	14	11
C[C@]12CC[C@H](O)CC1=CCC1C2CC[C@@]2(C)C1CC[C@@H]2NC(=O)[C@@H](N)Cc1ccccc1 (some centres undefined)	3695	56	-5	-3.1	·	-2	7
O=C1c2ccccc2C(=O)C1C(=O)C1CC1	4123	-2	-17	10	·	7	-1
Cc1ccc(N2CC(C(=O)NCCC3=CCCCC3)CC2=O)cc1 (centres undefined)	5424	4	-11	1.2	-3	10	4
N#CCCN(CCC#N)C(=O)c1ccc(Cl)cc1	11523	6	-9	3.8	-18	-4	8
Cc1cn(CC2COC(C)(C)O2)c(=O)[nH]c1=O (centres undefined)	3375	6	-13	6.0	-4	7	2
CN(C)C(=O)CSc1ccc(S(=O)(=O)N2CCOCC2)cn1	3793	3	-26	3.0	·	6	7
